FEN1 inhibitor = inhibitors of human flap endonuclease 1; Recombinant FEN1 flap cleavage, fluorescence, 15 min; hit rate 0.35% among 390,000; Potency, µM (doses to about 114 µM), for inactives: at the top dose activity change, negative = inhibition, usual class: inhibitors; further: nearly all actives have a fitted effect of over 65% in size
Target sequence (P39748 whole entry, looked up): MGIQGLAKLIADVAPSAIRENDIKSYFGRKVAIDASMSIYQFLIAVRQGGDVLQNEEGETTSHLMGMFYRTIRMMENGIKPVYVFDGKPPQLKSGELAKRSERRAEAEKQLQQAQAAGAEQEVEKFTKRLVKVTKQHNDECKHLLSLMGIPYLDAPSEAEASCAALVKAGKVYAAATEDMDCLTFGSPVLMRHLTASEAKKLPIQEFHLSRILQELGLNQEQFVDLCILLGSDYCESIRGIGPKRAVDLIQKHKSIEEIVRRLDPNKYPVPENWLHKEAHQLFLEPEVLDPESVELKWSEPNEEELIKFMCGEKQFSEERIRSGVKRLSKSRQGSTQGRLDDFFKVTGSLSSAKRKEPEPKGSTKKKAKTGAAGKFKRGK
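Recombinant FEN1 (10 nM) was preincubated with pin-transferred compounds for 15 min at room temperature, then flap DNA substrate (50 nM final) was added. Plates were read at 0 and 15 min, and normalized concentration–response data were fitted to a four-parameter Hill equation.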
N370S GC mod = inhibits or activates N370S mutant glucocerebrosidase | P04062 | Potency, µM (top dose mostly 59.4 µM), for the others: at the highest dose activity change, negative = inhibition, actives largely listed as inhibitors | hit rate 0.092% among 330,000 | AID 2101 | N370S GC spleen homogenate, 4MU-glucoside fluorescence;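 further: 0% = full enzyme activity and -100% = no enzyme basal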
* = called active by the depositor; ? = inconclusive; / = not tested or not shown; & = joins results of further samples; [ ] = dose if it differs, or a comment. The call rests on the fitted dose curve; in most records, active means well fitted curve in the direction sought with a large enough effect; inconclusive means small, poorly fitted or top-dose-only effect, or another doubt; inactive means no such curve, though single readings can be large; an effect the other way counts as inactive or inconclusive. Unless noted, on the % scale 0 is the no-effect control and ±100 the full control effect; potency means the concentration at half of the fitted maximal effect.

Below each compound: FEN1 inhibitor | N370S GC mod
CC(=O)OC(Cn1nc(C)cc1C)c1ccccc1 (stereo not given)
    6% | -6%
Cc1onc(-c2ccccc2)c1C(=O)Nc1ccccc1C#N
    16%&18% | -2%
CCOC(=O)Cc1nnc(NC(=O)CSc2nnc3c(n2)[nH]c2ccccc23)s1
    -20% | -6%
Cc1ccc(C(=O)N/C(=C/c2ccc(-c3cccc([N+](=O)[O-])c3)o2)C(=O)NCCCN(C)C)cc1
    -15% | -2%
CN(CC(=O)Nc1ccc2c(c1)OCCO2)S(=O)(=O)c1ccc(F)cc1
    0% | -6%
COc1ccc(NCc2nnc(SCC(=O)N3CCCc4ccccc43)o2)cc1
    -18% | -10%
Cc1ccnc(NC(=O)CNC(=O)Cc2cccc3ccccc23)c1
    7% | -11%
CCc1ccc(C(=O)c2cn(CC(=O)NCCc3ccc(OC)c(OC)c3)c3nc(C)ccc3c2=O)cc1
    1% | /
CCOC(=O)c1cnc2c(C#N)cnn2c1N
    3% | -17%
Cn1c(=O)c2ncn(CC(=O)NCCOCc3ccccc3Cl)c2n(C)c1=O
    -1% | 7%
O=C(CC1SC(=Nc2ccc(OC(F)F)cc2)N(CCC2=CCCCC2)C1=O)Nc1ccccc1F (stereo not given)
    -27% | 1%
O=C(N/N=C/c1sc(N2CCOCC2)nc1-c1ccccc1)c1ccccc1Cl
    -4% | -17%
COc1cc2nc(/C=C/c3ccc(N(C)C)cc3)sc2cc1SC
    -5% | -6%
CCOC(=O)C1CCN(c2cc3c(cc2NC(=O)c2ccccc2Cl)n(C)c(=O)n3C)CC1
    3%&-8% | -6%
CC(C)C(NC(=O)c1cccnc1)C(=O)O (stereo not given)
    -6% | -1%
O=C(NCc1ccc2c(c1)OCO2)c1cc(-n2cnnc2)ccc1Cl
    7% | 8%
Cc1cc(C)c2sc(C)[n+](CCCS(=O)(=O)[O-])c2c1
    1% | 5%
Cn1c(CCCOc2ccc(Cl)cc2Cl)nnc1SCC(=O)Nc1ccc(F)c(Cl)c1
    9% | -4%
CCc1nnc(NC(=O)CCC(=O)Nc2ccc(OC)cc2OC)s1
    19% | -1%
O=C(CN1C2=NCCCN2c2ccccc21)c1ccc([N+](=O)[O-])cc1
    -6% | -13%

3 compounds already listed, ordered by their value in N370S GC mod, descending:
molecule | N370S GC mod
O=C(CC1SC(=Nc2ccc(OC(F)F)cc2)N(CCC2=CCCCC2)C1=O)Nc1ccccc1F (stereo not given) | 1%
Cc1onc(-c2ccccc2)c1C(=O)Nc1ccccc1C#N | -2%
Cc1ccnc(NC(=O)CNC(=O)Cc2cccc3ccccc23)c1 | -11%

Other records
Below each compound: FEN1 inhibitor | N370S GC mod
Cn1c(=O)n(C)c2cc(NC(=O)COc3ccc(Cl)cc3)ccc21
    -13% | -15%
COc1cccc(C2=CC(c3ccc(N(C)C)cc3)n3ncnc3N2)c1 (stereo not given)
    / | 9%
CN(C(=O)COC(=O)CSc1cc(Cl)ccc1Cl)c1c(N)n(Cc2ccccc2)c(=O)[nH]c1=O
    -4% | -1%
Cc1cc2c(cc1S(=O)(=O)Nc1cc(C(F)(F)F)cc(C(F)(F)F)c1)OCC(=O)N2
    -8% | /
Cc1cc(C)c2c(CC(=O)NC(C)C)coc2c1
    2% | 0%
CN(C)c1cc(=O)n2c(n1)SCCC2
    1% | 3%[12.8 µM]
COc1cccc([C@@H]2Oc3ccc(OC)cc3C(=O)[C@H]2OC(=O)NCc2ccc3c(c2)OCO3)c1
    / | -15%&20%
Cc1ccc(NC(=O)CCSc2nnc(C)s2)cc1
    -3% | 3%
Cc1ccc(C(=O)CCC(=O)OCC(=O)N(C)c2c(N)n(Cc3ccccc3)c(=O)[nH]c2=O)cc1
    4% | 1%
Cc1cc(C(=O)N/N=C/c2ccc(-c3ccc(C)c(Cl)c3)o2)n[nH]1
    -3% | 2%
O=C(CSc1nnc(NC(=O)c2ccccc2Cl)s1)Nc1ccc2c(c1)oc1ccccc12
    / | -9%
COC(=O)C1=C(C)N(CC2CCCO2)C(=O)/C1=C\c1ccc(O)cc1 (stereo not given)
    2% | 7%
CCc1nnc(NS(=O)(=O)c2ccc(NC(=O)/C=C/C(=O)O)cc2)s1
    13% | 0%
CCc1ccc(N(CC(=O)NCc2ccco2)C(=O)CCC(=O)Nc2ccccn2)cc1
    -13% | -3%
COC(=O)c1nc(N)sc1C(C)C
    3% | -8%
COCCCN(Cc1ccco1)C(=O)Cn1ncc2c(=O)oc3ccc(C)cc3c21
    -5% | -14%
COc1ccc(N(C(=O)c2cccnc2)S(=O)(=O)c2cc(OC)ccc2OC)cc1
    4% | -3%
O=C(CSc1nccc(=O)[nH]1)N1c2ccccc2CCc2ccccc21
    -8% | 4%[2.35 µM]
CCOC(=O)C1CCN(c2ccc(Cl)nn2)CC1
    -5% | 2%
CCNC(=S)N1CCN(S(=O)(=O)c2ccccc2C(F)(F)F)CC1
    0% | 23%
O=C(O)COc1ccc(/C=C/c2ccc3cccc([N+](=O)[O-])c3n2)cc1
    -4% | -6%
CN(C)Cc1c(O)ccc2oc(Cc3ccccc3)cc12
    -6% | -26%
CCN(CC)C(=O)CSc1n[nH]c(=S)n1N
    -3% | 0%
CCN(CC)CCN1C(=O)C(=O)/C(=C(/O)c2ccc(S(=O)(=O)N3CCOCC3)cc2)C1c1ccc(Cl)cc1 (stereo not given)
    -3% | 2%
C=CCNC(=O)COc1cc(C)cc(C)c1C
    -5% | -1%
COc1ccc(/C=C/C(=O)O)cc1COc1cccc(C)c1
    -2% | 22%
COc1ccc(C(=O)N/C(=C\c2ccc([N+](=O)[O-])cc2)C(=O)NC(CCSC)C(=O)O)cc1 (stereo not given)
    8% | -1%
COc1cccc(OC2OC3COC(C)(C)OC3C(O)C2NC(C)=O)c1 (stereo not given)
    -2% | -6%
CNS(=O)(=O)c1ccc2c(c1)oc(=O)c1cc(S(=O)(=O)NC)ccc12
    16% | 0%
CCOC(=O)c1cccc(NC(=O)Cn2cnc3c2c(=O)n(C)c(=O)n3C)c1
    2% | -22%
CCC(=O)N1CCc2cc(S(=O)(=O)N3CCc4ccccc43)ccc21
    24% | 10%
Nc1ccc(C(=O)Nc2nccs2)cc1
    0% | 1%
O=C(O)C1C2C=CC(C2)C1C(=O)NCCCN1CCOCC1 (stereo not given)
    -3% | -3%
O=C(Nc1ccc(C(=O)N2CCCCC2)cc1)Nc1cccc(Cl)c1
    -6% | -9%
Cc1c(C(=O)NCc2ccco2)oc2ccc(S(=O)(=O)N3CCC4(CC3)OCCO4)cc12
    4% | 12%
CCOc1ccc(NC(=O)CC2S/C(=N/N=C3CCCCCC3)NC2=O)cc1 (stereo not given)
    -17% | -7%
Cc1cc(NC(=O)c2cnn3cccnc23)no1
    -4% | 7%
CS/C(=N\S(=O)(=O)c1ccc(N)cc1)NS(=O)(=O)c1cccs1
    -9% | 0%
CN(C)CCCN(C(=O)c1sc2ccccc2c1Cl)c1nc2ccc(F)cc2s1
    -4% | -9%
Cc1ccc(CNC(=O)COC(=O)c2cnc(C)cn2)cc1
    4% | -4%
Cc1cc(C)nc(SCCN2CCOCC2)n1
    2% | 5%
Oc1ccc(Cl)cc1N=Cc1sc2ccccc2c1Cl
    -11% | -15%
COc1c(/C=N/Nc2ccc(C(=O)O)cc2)c(CCN(C)C(C)=O)cc2c1OCO2
    -2% | 1%
CN(C)C1C(=O)C(C(N)=O)C(=O)C2(O)C(=O)C3C(=O)c4c(O)ccc(Cl)c4C(O)C3CC12 (stereo not given)
    / | -15%
COc1ccc(/C=C(/Sc2nnc(-c3ccc(Cl)cc3)o2)C(=O)O)cc1
    16% | -15%
Cc1cc(C)nc(-n2nc(C)c3c2N(Cc2ccccc2C)C(=O)CC3c2ccc(Cl)cc2)n1 (stereo not given)
    -1% | /
O=C(NCc1ccc(F)cc1)c1ccc2nc(N3CCCCC3)sc2c1
    10% | /
C=CCNC(=O)CC(=O)N/N=C/c1cccc(Br)c1
    1% | -4%
CS(=O)(=O)N(CCC#N)Cc1ccco1
    5% | -15%
C/C(=N\NC(=O)c1ccco1)c1ccc(NC(=O)c2ccccc2)cc1
    -9% | -7%
NC(=O)c1ccccc1NC(=O)CCCN1C(=O)CCC1=O
    14% | 2%
O=C(Nn1cnnc1)C1CCCN1S(=O)(=O)c1ccc(F)cc1 (stereo not given)
    6% | 6%
O=C(CCC(=O)N1CCN(S(=O)(=O)c2ccc(Cl)cc2)CC1)Nc1ccc2ccccc2c1
    27% | -11%
COc1ccc(NC(=O)Nc2ccon2)c(OC)c1
    7% | -9%
Cc1c(C)n(C)c2ccc(C(=O)NCc3cccs3)cc12
    10% | 13%
CC(=O)c1cccc(NC(=O)CSc2nnnn2C2CCCC2)c1
    4% | 7%
Nc1ccccc1-c1nnc(-c2ccccc2N)n1N
    16% | -1%
Cc1ccc(S(=O)(=O)N2CCOCC2)cc1NC(=O)COc1ccccc1Cc1ccccc1
    -2% | /
COC(=O)c1cc(C(=O)N2CCN(c3ccccc3OC)CC2)cc([N+](=O)[O-])c1
    12% | -10%
O=S(=O)(N/N=C/c1ccc(F)cc1)c1ccccc1
    0% | 7%

The list continues.
Below each compound: FEN1 inhibitor | N370S GC mod
CCOc1cccc2cc(C(N)=O)c(=NCc3ccccc3)oc12
    1% | -4%
O=C(c1nc(SCc2ccc([N+](=O)[O-])cc2)n2ccccc12)C(F)(F)F
    -19% | 8%
Cc1nnc2c(N3CCN(c4ccc(F)cc4)CC3)nc3ccc(C(=O)c4ccccc4)cc3n12
    4% | /
CCOc1cc(-c2ccccc2)nc(N)n1
    6% | -3%
COc1ccc(OC)c(-c2csc(N(CC3CCCO3)C(=O)Cc3ccccc3)n2)c1 (stereo not given)
    -17% | 11%
Cc1cc(C(C)(C)C)cc(C)c1S(=O)(=O)N1CCN(C(=O)c2cc([N+](=O)[O-])c[nH]c2=O)CC1
    -10% | -19%
Cc1oc(/N=C/c2cccc3ccccc23)c(C#N)c1C
    -23% | -3%
Cc1ccc(CSc2cn(CCNC(=O)c3cccs3)c3ccccc23)cc1
    -22% | /
Clc1ccc(OCc2cc(-c3ccccc3)no2)cc1Cl
    -7% | ?
Cc1sc(N)c(C#N)c1C
    9% | -1%
Cc1cccc(N/C(N)=N/c2nc3c(c(=O)[nH]2)CCCC3)c1
    5% | -6%
S=C(c1c[nH]c2ccc(Br)cc12)N1CCOCC1
    -14% | 14%
Cc1ccc(-n2cc(-c3ccccc3)[nH]c2=O)cc1F
    7% | 20%
CCCN(c1ccccc1F)S(=O)(=O)c1cc(-c2cc(C)no2)ccc1C
    -16% | /
COCCCNC(NC(=O)c1ccc(Br)cc1)C(Cl)(Cl)Cl (stereo not given)
    4% | 17%
CCc1ccccc1NC(=O)c1nc2nc(C)cc(C(F)F)n2n1
    8% | /
CCn1c(SCC(=O)Nc2ccc(C(=O)OC)cc2)nnc1-c1cccs1
    6% | 1%
CC[N+](CC)(CC(=O)Nc1c(C)cccc1C)Cc1ccccc1
    4% | 5%[21.6 µM]
O=C(Nc1ccc(Cl)cc1)Nc1nnc(-c2ccncc2)s1
    -1% | -7%
Cn1nnc2c(N3CCN(c4ccccc4F)CC3)ncnc21
    13% | /

Reprinted from the part before: 6 entries, followed by the next part.
Below each compound: FEN1 inhibitor | N370S GC mod
COCCCNC(NC(=O)c1ccc(Br)cc1)C(Cl)(Cl)Cl (stereo not given)
    4% | 17%
CCc1ccccc1NC(=O)c1nc2nc(C)cc(C(F)F)n2n1
    8% | /
CCn1c(SCC(=O)Nc2ccc(C(=O)OC)cc2)nnc1-c1cccs1
    6% | 1%
CC[N+](CC)(CC(=O)Nc1c(C)cccc1C)Cc1ccccc1
    4% | 5%[21.6 µM]
O=C(Nc1ccc(Cl)cc1)Nc1nnc(-c2ccncc2)s1
    -1% | -7%
Cn1nnc2c(N3CCN(c4ccccc4F)CC3)ncnc21
    13% | /
Cc1ccc(CNC(=O)COC(=O)CN2C(=O)C3CC=CCC3C2=O)cc1 (stereo not given)
    -3% | /
Cc1cc(C)c(-c2cc([C@H](C)O/N=C\[C@@H](C)[C@H](OCc3ccccc3)C(C)C)on2)c(C)c1
    / | -7%[12.8 µM]
CCN1CCN(Cc2ccc(NC(=O)c3ccc(C)c(NC(=O)c4ccnnc4)c3)cc2C(F)(F)F)CC1
    -13% | -8%
COC(=O)c1ccc(CNC(=O)Cn2cnc3c(OCc4ccccc4)ncnc32)cc1
    -5% | /
Cc1ccc(NC(=O)COC(=O)C2CCC2)cc1S(=O)(=O)N1CCOCC1
    10% | /
COc1ccc(/C=N/N2CCN(c3ccncc3S(=O)(=O)N3CCCCC3)CC2)cc1
    0% | 5%
CCCn1nc(C(=O)NNC(=O)CCCOc2ccc(OC)cc2)c2ccccc2c1=O
    1% | /
COc1ccc(Br)cc1CNC(=O)c1cnc2sc(N3CCCC3)nn2c1=O
    2% | /
Cc1cc(C)cc(N2CCCC2=O)c1
    6% | 3%
CCCCOc1ccc(C(=O)NCCc2cccs2)cc1
    / | 2%
Oc1ccccc1OCc1nc2ccccc2s1
    -2% | -10%
CCCC(C(=O)Nc1ccc(S(=O)(=O)Nc2nccs2)cc1)c1ccccc1 (stereo not given)
    3% | -8%

2 entries picked at random from those above:
Below each compound: FEN1 inhibitor | N370S GC mod
COc1ccc(/C=N/N2CCN(c3ccncc3S(=O)(=O)N3CCCCC3)CC2)cc1
    0% | 5%
CCCC(C(=O)Nc1ccc(S(=O)(=O)Nc2nccs2)cc1)c1ccccc1 (stereo not given)
    3% | -8%

Only part of the results is shown, and most or all hits are left out here.
